Screening results from PubChem BioAssay.
Six1-Eya2 inh: qHTS Assay for Inhibitors of the Six1/Eya2 Interaction; AlphaScreen GST-Six1/His-Eya2 binding, biochemical; stronger effect = lower value; control for the full effect not named in the record; AID 651725, 2012; Homeobox protein SIX1 (Homo sapiens) + Protein phosphatase EYA2 (Homo sapiens), …; actives 0.56% (n = 360,000); activity change, % (no concentration beside the values); in the data active = activity change below about -65%; inconclusive = about -30% to -65%; inactive = above about -30%; note: % is set by controls: 0 for no effect and ±100 for the full control effect; compound concentration not given in the record
Target sequence (O00167 whole entry, looked up): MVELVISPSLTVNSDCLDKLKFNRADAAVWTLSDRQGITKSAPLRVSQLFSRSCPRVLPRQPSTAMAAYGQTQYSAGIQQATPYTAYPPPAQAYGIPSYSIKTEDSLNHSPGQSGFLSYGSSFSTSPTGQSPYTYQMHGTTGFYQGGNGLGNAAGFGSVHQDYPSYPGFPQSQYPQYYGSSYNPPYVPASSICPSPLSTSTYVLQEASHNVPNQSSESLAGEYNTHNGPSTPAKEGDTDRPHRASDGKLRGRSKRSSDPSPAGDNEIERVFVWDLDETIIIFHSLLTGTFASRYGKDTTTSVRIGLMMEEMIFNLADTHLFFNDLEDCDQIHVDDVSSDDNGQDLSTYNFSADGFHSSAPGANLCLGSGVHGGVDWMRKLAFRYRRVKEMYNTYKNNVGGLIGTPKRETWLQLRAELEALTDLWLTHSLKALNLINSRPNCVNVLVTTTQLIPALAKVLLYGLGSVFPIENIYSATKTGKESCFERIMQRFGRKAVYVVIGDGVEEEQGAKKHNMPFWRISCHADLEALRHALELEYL
Target sequence (Q15475 whole entry, looked up): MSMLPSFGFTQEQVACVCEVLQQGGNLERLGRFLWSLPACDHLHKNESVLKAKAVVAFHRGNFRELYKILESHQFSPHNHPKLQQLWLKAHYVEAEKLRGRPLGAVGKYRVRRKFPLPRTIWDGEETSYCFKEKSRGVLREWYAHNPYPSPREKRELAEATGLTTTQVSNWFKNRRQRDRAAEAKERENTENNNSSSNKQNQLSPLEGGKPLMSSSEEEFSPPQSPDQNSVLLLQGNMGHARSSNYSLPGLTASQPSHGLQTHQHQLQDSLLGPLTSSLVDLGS
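AlphaScreen luminescence read after one hour at 37 °C in darkness. Pin-transferred compounds met GST-Six1 and His-Eya2 protein (5X stock 250 nM/500 nM) plus glutathione donor and Ni-chelate acceptor beads (5X, 50 ug/mL).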
gsp antag: qHTS for Antagonists of gsp, the Etiologic Mutation Responsible for Fibrous Dysplasia/McCune-Albright Syndrome: qHTS | gsp-mutant cells, cAMP HTRF, 30 min; control for the full effect not named in the record | Potency, µM (top dose mostly 76.9 µM), without a hit: at the highest dose activity change, negative = inhibition, hits mostly inhibitors | actives 0.4% (n = 340,000); active = falling curve of any shape with a large fitted effect; inconclusive = falling curve, mostly with a smaller effect; inactive = flat or rising curve; cell line not stated here;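 note: intracellular cAMP measured with PDE inhibitor Ro 20-1724 present during compound exposure; potency is the fitted concentration of half-maximal effect; % is set by controls: 0 for no effect and ±100 for the full control effect; nearly all actives have a fitted effect of over 65% in size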
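HTRF cAMP measurement after 30 min RT detection following 30 min, 37C compound treatment alongside […] (added as 300 uM solution) in G418-selected cells seeded at 2000/well and grown 16–24 h.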
D2 agonist: Beta-Arrestin HTS for Positive Allosteric Modulators of the Human D2 Dopamine Receptor: Agonists; D(2) dopamine receptor (Homo sapiens), P14416; DiscoveRx PathHunter D2 beta-arrestin, luminescence, 90 min; 100% = 57 uM dopamine signal; activation, % (test concentration not listed); actives 0.084% (n = 360,000); in the data active = activation above about 40%; inconclusive = about 15% to 40%; inactive = below about 15%; note: compound concentration not given in the record; the text of the record calls up to 30% inactive
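DiscoveRx PathHunter D2 beta-arrestin cells (2,100/well) attached overnight, then compound-stimulated 90 min at 37 C in HBSS/10 mM HEPES/0.1% Tween-20 buffer; beta-galactosidase complementation read by luminescence after 1 h at ambient temperature. Dopamine 57 uM final (EC100) as control.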
D2 PAM: Beta-Arrestin HTS for Positive Allosteric Modulators of the Human D2 Dopamine Receptor: Potentiators | AID 624464, 2012 | D(2) dopamine receptor (Homo sapiens), P14416 | potentiation, % (concentration not given with the values) | DiscoveRx D2 beta-arrestin cells, luminescence, 90 min; 100% = 57 uM dopamine signal | actives 0.23% (n = 360,000); active = potentiation of 50% or more; inconclusive = 30% to 50%; inactive = 30% or less;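 note: compound concentration not given in the record; tested on top of an EC20 dose of dopamine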
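PathHunter beta-arrestin assay in DiscoveRx D2 cells. Compounds were added with an EC20 of dopamine (50 nM final) for 90 min at 37 deg C. Luminescence was read 1 h after detection reagent, with 57 uM dopamine as the EC100 control.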
CtBP-E1A inh: qHTS Assay for Inhibitors of the CtBP/E1A Interaction | CtBP / adenovirus E1A interaction (AlphaScreen) | actives 0.49% (n = 340,000) | AlphaScreen GST-E1A/His-CtBP binding, 1536-well; stronger effect = lower value; control for the full effect not named in the record | activity change, % (test concentration not listed); in the data active means activity change below about -65%; inconclusive means about -30% to -65%; inactive means above about -30%; note: % is set by controls: 0 for no effect and ±100 for the full control effect; compound concentration not given in the record
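Homogeneous bead-based format: GST-tagged E1A captured on glutathione donor beads, His-tagged CtBP on nickel acceptor beads; compounds precede bead addition by 2 h at 37 °C.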
gsp ag: qHTS for Agonist of gsp, the Etiologic Mutation Responsible for Fibrous Dysplasia/McCune-Albright Syndrome: qHTS; actives 0.13% (n = 340,000); AID 624287, 2012; gsp mutant cells, cAMP HTRF, 30 min; control for the full effect not named in the record; Potency, µM (series often up to 76.9 µM), for the others: at the top dose activation (cAMP increase), actives largely listed as activators; active = well fitted activation curve with a large enough effect; inconclusive = small, poorly fitted or top-dose-only effect, or another doubt; inactive = no such curve, though single readings can be large or run the other way; cell line not stated here;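 note: phosphodiesterase inhibitor Ro 20-1724 added with compounds to block cAMP breakdown; potency is the fitted concentration of half-maximal effect; nearly all actives have a fitted effect of over 60% in size; about a fifth of the inactives were tested at one dose only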
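Cells in DMEM/10% FBS with G418 were pretreated with compounds in DMSO plus […] (300 uM stock) for 30 min at 37C. cAMP was measured by HTRF (cAMP-d2 plus anti-cAMP antibody-K) after 30 min at room temperature.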
* = called active by the depositor; ? = inconclusive; . = not tested or not shown; [ ] = remark or other dose.

SMILES	Six1-Eya2 inh	gsp antag	D2 agonist	D2 PAM	CtBP-E1A inh	gsp ag
C=CCn1c(SCc2ccccc2)nnc1-c1cccnc1	3	9%	-1.7	-12	-5	0%
Cc1ccc(S(=O)(=O)c2nc(-c3ccccc3)oc2NCCCN2CCOCC2)cc1	-7	-4%	-2.3	-10	-15	?
Clc1ccc(CN2CCN(c3ncnc4scc(-c5cccs5)c34)CC2)cc1	-13	-16%	-2.5	-35	-22	-3%
CC1(C)CC(=O)C2=C(C1)Nc1ccccc1NC2c1ccc2c(c1)OCO2 (centres undefined)	-1	-22%	-2.9	-9	3	1%
CC(C)(C)n1nc2c(c1NC(=O)COc1ccc(F)cc1)CS(=O)(=O)C2	-4	10%	-2.2	-5	-17	27%
CCOc1cc(C(=O)Nc2ccccc2N2CCOCC2)ccc1OCC(=O)N1CCCCC1	-3	?	4.3	1	-5	18%
O=C(Nc1sc2c(c1C(=O)O)CCC2)c1cccs1	-11	-21%	-1.6	-2	-24	-16%
CCOC(=O)COc1ccc2ccccc2c1/C=C/[N+](=O)[O-]	-3	8%	0.8	3	9	0%
CCOC(=O)c1c(NC(=O)Cn2cc([N+](=O)[O-])cn2)sc2c1CCC2	5	-2%	-1.3	-9	35	1%
CCOc1ccc(N(CC(=O)Nc2ccc(C)cc2)S(=O)(=O)c2c(C)noc2C)cc1	-7	-22%	-3.9	-7	1	-19%
CCOc1ccccc1CNC(=O)c1ccc(Sc2ccc(Cl)cc2)c(NC(C)=O)c1	1	?	-1.1	-6	-1	0%
CC(C)N(CCCNC(=O)Cn1c(=O)c2cccn2c2ccc(F)cc21)Cc1ccccc1	7	7%	-7.4	-4	1	30%
CCn1c(SCC(=O)NCCc2ccccc2)nc2c(c1=O)SC(C)C2 (centres undefined)	-1	-6%	-2.7	-2	3	-13%
O=C(CN1C(=O)C2C3C=CC(C3)C2C1=O)Nc1ccc2nccnc2c1 (centres undefined)	-17	16%	-0.8	-5	-4	?
COc1ccc(S(=O)(=O)Nc2cc(C(=O)NCCCOC(C)C)ccc2N2CCOCC2)cc1	2	2%	1.5	-11	.	19%
CC1C(=O)N(Cc2cn(Cc3ccco3)nn2)CCS(=O)(=O)N1Cc1ccc(-c2ccc(F)cc2Cl)cc1 (centres undefined)	-16	.	1.3	-2	-14	.
Cc1ccc(S(=O)(=O)NCc2c(-c3ccccc3)noc2C)cc1	-15	-15%	-0.5	-3	1	5%[15.4 µM]
CCN=C1SC(CC(=O)NC(C)C)C(=O)N1CC (centres undefined)	3	3%	0.8	-1	6	?
O=C(NCc1ccc2c(c1)OCO2)c1ccc(CSCc2ccc(Cl)cc2)o1	-15	-2%	-1.3	-8	-18	-8%
Cc1cc(OCCNCCO)cc(C)c1Cl	6	6%	-1.4	-17	-1	-4%
CN(c1ccc(OCCOc2ccccc2Cl)cc1)S(=O)(=O)c1ccccc1	17	1%	-1.2	-18	-2	-6%
Cc1cc(C)nc(SCC(=O)N/N=C/c2cc(C)n(-c3ccccc3C)c2C)n1	-16	8%	-1.1	0	-27	-7%
COc1ccc(C(=O)N2CCN(c3ccc([N+](=O)[O-])c(NCCc4ccc(OC)c(OC)c4)c3)CC2)cc1	-12	-13%	1.8	-1	17	-21%[15.4 µM]
Cc1cc(Cl)ccc1OCC(=O)N(Cc1cccs1)C1CCS(=O)(=O)C1 (centres undefined)	7	-14%	-0.9	-8	2	12%[15.4 µM]

4 neighbouring entries already listed, for reference:
SMILES	Six1-Eya2 inh	gsp antag	D2 agonist	D2 PAM	CtBP-E1A inh	gsp ag
CN(c1ccc(OCCOc2ccccc2Cl)cc1)S(=O)(=O)c1ccccc1	17	1%	-1.2	-18	-2	-6%
Cc1cc(C)nc(SCC(=O)N/N=C/c2cc(C)n(-c3ccccc3C)c2C)n1	-16	8%	-1.1	0	-27	-7%
COc1ccc(C(=O)N2CCN(c3ccc([N+](=O)[O-])c(NCCc4ccc(OC)c(OC)c4)c3)CC2)cc1	-12	-13%	1.8	-1	17	-21%[15.4 µM]
Cc1cc(Cl)ccc1OCC(=O)N(Cc1cccs1)C1CCS(=O)(=O)C1 (centres undefined)	7	-14%	-0.9	-8	2	12%[15.4 µM]

Remaining list, next part
SMILES	Six1-Eya2 inh	gsp antag	D2 agonist	D2 PAM	CtBP-E1A inh	gsp ag
CC12COC3(C(=O)Nc4ccc(F)cc4)CC1CCC32C (centres undefined)	4	4%	-0.6	-9	1	-9%
COc1ccc(C(CCNCc2ccc(N(C)C)cc2)C(C)C)cc1 (centres undefined)	-67*	-5%	-1.3	-25	.	-21%
COc1ccc2c(Cl)c(C(=O)OCC(=O)c3ccc4c(c3)NC(=O)CO4)sc2c1Cl	-1	1%	-5.9	-7	-18	-10%
CCOC(=O)c1c(C)[nH]c(C(=O)OC)c1CCC(=O)OC	2	4%	0.5	-3	8	38%
CCc1ccc(CCC(=O)Nc2ccc(C)c(C)c2)o1	-3	-16%	-0.8	-16	-1	-53%[inhibitor]
c1ccc2c(c1)OCc1cn[nH]c1-2	-2	4%	-1.7	-7	-5	?
COc1ccc(N2CCN(C(=O)NCc3ccc(C)cc3)CC2)cc1	7	6%	1.9	-3	32	-13%[15.4 µM]
CC(C)CC1(C(=O)NCCN2CCOCC2)C=CCN1C(=O)c1ccccc1 (centres undefined)	-1	14%	-2.1	-44	-1	.
COc1ccccc1NC(=O)NCc1ccco1	0	15%	-0.3	-6	-4	-14%[15.4 µM]
Cc1ccccc1CC(=O)Nc1sc(C(C)C)cc1C(=O)N1CCOCC1	-7	-3%	-14	2	1	?
Cc1sc2ncnc(N)c2c1C	8	-12%	-2.5	-4	-7	-3%
CC(O)(c1ccc(F)c(F)c1)c1nc(-c2csc3ccccc23)cs1 (centres undefined)	3	.	4.4	3	18	.
COC(=O)Cn1c2ccc(Cl)cc2c2nc(C)sc21	1	-21%	-1.8	-11	-3	15%[15.4 µM]
Cc1ccc(C(=O)N2CCn3c(C)ccc3C2C)cc1 (centres undefined)	-5	2%	-4.9	-6	-9	24%[15.4 µM]
CC(C)OCCCN1CN(S(=O)(=O)c2cccc(Cl)c2)c2nc3ccccc3nc21	-6	?	0.3	-23	0	-4%
COc1cc([N+](=O)[O-])cc(/C=N/NC(=O)c2cc(-c3ccccc3)nc3ccccc23)c1O	?	-26%	-3.9	-4	-88*	-31%[inhibitor]
CSc1ccccc1NC(=O)CCn1c(=O)oc2ccccc21	13	9%	0.4	-7	9	?
CC(=NNC(=O)c1ccncc1)c1cccc(Cl)c1	0	3%	-1.6	-8	-6	-3%
O=C(NC(=S)Nc1cccc2c(O)cccc12)c1cccc(Br)c1	-22	?	2.7	-14	-18	-47%[inhibitor]
CCCn1c(=S)[nH]c2cc(C(=O)N3CCN(c4ccc(F)cc4)CC3)ccc2c1=O	-5	.	-3.7	-2	-1	8%
CCCCn1c(N)c(N(CCOC)C(=O)COC(=O)COc2cccc(C(C)=O)c2)c(=O)[nH]c1=O	11	0%	-1.8	-2	5	5%
S=C1NC2(CCCC2)N=C1c1ccccc1	5	9%	-3.8	-11	.	-2%
CCN(CC1CCCO1)C(=O)c1cc(COc2ccccc2SC)on1 (centres undefined)	3	-5%	-4.4	-5	3	-15%[15.4 µM]
c1ccc(-n2c(Cc3cccnc3)nc3cnccc32)cc1	0	5%	-2.5	2	-8	30%
COc1ccccc1N=Nc1ccc(N)c(C)c1	?	-1%	-3.6	-13	?	3%[15.4 µM]
CCOC(=O)NC(=O)/C(C#N)=C\Nc1ccc(Cl)cc1Cl	-7	1%	-1.2	-5	-1	?
O=[N+]([O-])c1ccc(N2CCOCC2)cc1NC(c1ccccc1)c1ccccc1	?	?	-3.9	-15	?	10%
CCCCN(C(=O)c1ccc(-c2ccc(Cl)cc2)o1)c1c(N)n(CCC)c(=O)[nH]c1=O	2	1%	1.0	-2	-8	?
O=C(c1ccc(NS(=O)(=O)/C=C/c2ccccc2)cc1)N1CCCCC1	6	?	-2.2	3	-6	8%[15.4 µM]
COc1cc(O)c2c(c1)OC(c1ccc(O)cc1)CC2=O (centres undefined)	19	-3%	7.1	9	19	.
CC(=O)c1ccc(NC(=O)CSc2cn[nH]n2)cc1	-9	2%	-3.9	-7	-1	19%
O=C(O)CSc1nnc(Cn2nnc3ccccc32)n1CCc1ccccc1	0	1%	-3.4	-16	-8	?
CCCCNC(=O)c1onc(CCl)c1C(=O)OC	6	-12%	-2.8	-13	4	.
CNCc1sccc1C	-7	-27%	-2.4	-9	-1	8%[15.4 µM]
COc1ccc(NC(=S)NNc2ccc(C(=O)O)cc2)cc1	-2	1%	6.8	19	-3	8%
COc1ccc(C(=O)N(C)CC(=O)Nc2cccc(F)c2)cc1S(=O)(=O)NC1CCCC1	0	-3%	-1.1	-18	-12	-3%[15.4 µM]
Cc1ccc(C(=O)ONc2ccc(N=O)cc2)cc1	4	4%	-2.4	2	0	-11%
CCc1nnc(NC(=O)CSc2nnc(C(C)NC(=O)c3ccccc3)n2C)s1 (centres undefined)	5	-5%	4.1	-5	6	-21%
CC1(OC(=O)CCc2ccccc2)C(=O)C=C2C=C(c3ccc(C#N)cc3)N(C(CO)CO)C=C2C1=O (centres undefined)	-2	5%	9.8	11	1	.
O=C1C=C(c2ccc3c(c2)OCO3)CCC1	-1	10%	-0.7	-4	3	7%
CC(/C=N/NC(=O)Cc1cccs1)=C\c1ccco1	-6	-6%	-0.1	-23	-1	-32%[inhibitor]
COc1ccc(NC(=O)CCc2nnc3ccc(NCc4ccco4)nn23)cc1OC	-11	7%	-0.3	9	-7	5%
CCN(C[C@H]1N[C@@](Cc2ccccc2)(C(=O)OC)[C@H]2C(=O)N(C)C(=O)[C@@H]12)C(=O)c1ccc(F)cc1	9	-1%	0.5	0	7	.
Cn1c(=O)c2c(ncn2CC(=O)OCC(=O)c2ccc(Cl)cc2)n(C)c1=O	11	-13%	-0.5	-6	6	13%
Cn1c(=O)oc2ccc(C(=O)CSc3nnnn3-c3ccccc3)cc21	3	3%	-3.9	14	9	-9%
O=C(Nc1ccccc1)N1CCN(c2ccc(F)cc2)CC1	5	11%	0.3	-22	6	-24%
Cc1nc(-c2ccccc2)sc1C(=O)Nc1ccccc1F	-1	0%	-0.9	-7	18	-1%[15.4 µM]
O=C(COc1ccc(Cl)cc1)NCCS(=O)(=O)N1CCN(c2ccc(F)cc2)CC1	0	0%	0.8	2	3	?
Cc1ccc(Cc2c(C)nc3nc(SCC(=O)NCc4ccco4)nn3c2C)cc1	-2	21%	-3.8	17	-1	0%
